Mtb H37Rv – Mycobacterium tuberculosis H37Rv growth inhibition, cell based, confirmatory dose response (AID 1949). most inactive calls were filed without a number and no value below 0 was filed. inhibition, % at 10 µg/mL; hits with a dose series show IC50 in µg/mL. actives 1.6% (n = 100,000);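 active means confirmed in a dose series; inconclusive means about 50% or more but not retested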;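 further: bacteria grown 7 days with compound before Alamar blue readout; 0% = untreated bacteria and 100% = reference antibiotic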
Starred values were filed as active, the others as inactive; i = inactive; ? = inconclusive. Not all compounds are listed; rates above refer to the full screens.

molecule | Mtb H37Rv
NS(=O)(=O)c1ccc(NC(=S)N2CCN(Cc3ccccc3)CC2)cc1 | i
CS(=O)(=O)N(CC(=O)Nc1ccc2c(c1)OCCO2)Cc1ccccc1 | i
COc1cc(NC(=O)C(C)Oc2ccccc2)c(OC)cc1NC(=O)C(C)Oc1ccccc1 (stereo unspecified) | 2%
O=C(O)C1C2CCC(O2)C1C(=O)NCc1ccco1 (stereo unspecified) | i
CC(=O)Cn1cnc2sc(-c3ccccc3)cc2c1=O | i
CCOC(=O)C1CCCN1C(=O)c1ccc(-c2ccccc2)cc1 (stereo unspecified) | i
O=C(Nc1cccc(NC(=O)C(c2ccccc2)c2ccccc2)c1)C(c1ccccc1)c1ccccc1 | i
O=C(Nc1ccccc1N1CCOCC1)c1ccc(-c2cc3ccccc3oc2=O)cc1 | i
CCC(C)Oc1cccc(C(=O)Nc2ccccc2N2CCOCC2)c1 (stereo unspecified) | i
O=C(NCC1CCCO1)C1CCN(S(=O)(=O)c2ccccc2)CC1 (stereo unspecified) | i
COC(=O)c1cc(OC)c(OC)cc1NC(=O)c1cc2c(s1)CCCC2 | i
O=C(CC(C(=O)O)N1CCCCC1)Nc1cccc2ccccc12 (stereo unspecified) | i
COc1ccc(C(=O)CC2(O)C(=O)N(Cc3ccccc3C)c3ccccc32)cc1OC (stereo unspecified) | i
CCOc1ccc(NC(=O)c2ccccc2F)c([N+](=O)[O-])c1 | i
COc1cc(S(=O)(=O)n2nc(C)cc2C)ccc1Cl | i

Quoted at random: two entries already listed.
molecule | Mtb H37Rv
O=C(Nc1ccccc1N1CCOCC1)c1ccc(-c2cc3ccccc3oc2=O)cc1 | i
NS(=O)(=O)c1ccc(NC(=S)N2CCN(Cc3ccccc3)CC2)cc1 | i

Other results follow.
molecule | Mtb H37Rv
CCc1ccc(N2CCN(S(=O)(=O)c3cc(OC)c(C)cc3C)CC2)cc1 | 2%
Cn1c(Cc2cccc3ccccc23)nnc1SCc1ccc([N+](=O)[O-])cc1 | i
COc1ccc(/C(N)=N/OC(=O)c2cccc(Cl)c2)cc1OC | i
O=Nc1onc(-c2ccccc2)c1NO | i
COc1ccccc1OCCSc1n[nH]c2nc3ccccc3n12 | i
Cc1cccc(-c2cc(C(=O)Nc3c(Cl)cccc3Cl)c3ccccc3n2)c1 | i
Cc1ccc2nc(-c3ccc(C)c(NC(=O)c4ccc([N+](=O)[O-])cc4)c3)oc2c1 | i
CCOC(=O)c1ccc(NC(=O)C(Cc2ccccc2)N2C(=O)C3C4C=CC(C4)C3C2=O)cc1 (stereo unspecified) | i
Oc1c(C(Nc2ccccn2)c2ccccn2)ccc2cccnc12 (stereo unspecified) | 10%
S=C(NCc1ccco1)Nc1nn(Cc2ccc(Cl)cc2Cl)cc1Cl | 0%
COc1ccc(NCC(=O)n2c3ccccc3c3ccccc32)cc1 | i
CCOc1ccc(N2CC(C(=O)NCc3ccccc3C)CC2=O)cc1 (stereo unspecified) | i
COc1cccc(S(=O)(=O)Nc2ccc(Br)cc2F)c1 | i
COc1ccc(-c2csc(N3C(=O)C4C5c6ccccc6C(c6ccccc65)C4C3=O)n2)cc1 (stereo unspecified) | i
CCOc1ccc(CCNC(=O)c2cccnc2N2CCCC2)cc1OCC | i
Cc1cc(=O)oc2cc(NC(=S)NC(C)c3ccncc3)ccc12 (stereo unspecified) | 40%
Cc1[nH]c2ccccc2c1C(=O)CSc1ccccn1 | 4%
c1cncc(-c2nn3c(Cn4cnc5ccccc54)nnc3s2)c1 | i
COc1ccccc1Nc1ncnc2ccc(I)cc12 | i
CCC(C)c1ccc(NC(=O)COc2ccccc2OC)cc1 (stereo unspecified) | i
C=C1N(c2cccc(Cl)c2)C(=O)OC1(C)C | i
Cc1ccccc1NC(=O)CSC1CC(=O)N(c2ccccc2)C1=O (stereo unspecified) | i
CC(=O)c1ccc(NC(=O)CSc2nnc(-c3ccc4ccccc4n3)s2)cc1 | i
C=CCn1c(COc2ccccc2)nnc1SCC(=O)c1ccc(Br)cc1 | i
COc1ccccc1C(CCN)c1ccco1 (stereo unspecified) | i
O=C1CC(Cc2ccc(Cl)cc2)C(=O)N1c1ccc(Cl)cn1 (stereo unspecified) | i
O=C(COc1ccccc1)Nc1ccc(CN2CCCCC2)cc1 | i
O=C(Nc1cccc2c1CCCC2)c1ccc(Cl)cc1[N+](=O)[O-] | i
C=CCn1c(SCCC(=O)O)nnc1-c1cccs1 | i
CC(C)(C)Sc1nnc(SC(C)(C)C)c2ccccc12 | i
Cc1ccc(CN2C(=O)c3oc4ccc(Cl)cc4c(=O)c3C2c2ccc(Br)cc2)cc1 (stereo unspecified) | i
CCOc1ccc(CNc2ccc(N3CCCC3)cc2)cc1 | i
C=CCn1c(SCC(=O)Nc2nc(-c3ccc(C)cc3)cs2)nnc1-c1ccc(OC)cc1 | 3%
COc1cc(C(=O)NC(=S)Nc2c(Cl)cc(Cl)cc2Cl)cc(OC)c1OC | 5%
Cc1ccccc1OCC(=O)O/N=C(\N)c1ccccc1Cl | 3%
N#Cc1ccccc1NC(=O)c1ccccc1OCC(=O)Nc1ccc2c(c1)oc1ccccc12 | 13%
COc1ccc(-c2cc(=O)c3cc(OC(=O)C(C)(C)C)ccc3o2)cc1 | i
COCCNS(=O)(=O)c1cc(OC)c(Cl)cc1OC | i
Cc1cc(=O)n2[nH]c(-c3ccc(Cl)cc3)nc2n1 | i
Cc1ccc(CNC(=O)C(=O)N2CCCCC2)cc1 | 2%
COc1ccc(N(CC(=O)O)S(=O)(=O)c2ccc(C)cc2)cc1 | i
NC(CC(=O)Nc1ccc(Cl)cc1)C(=O)O (stereo unspecified) | i
O=[N+]([O-])c1ccc(NCCCNS(=O)(=O)c2ccc3ccccc3c2)c(C(F)(F)F)c1 | i
CC(=O)N(Cc1ccccc1)Cc1cn(-c2ccccc2)nc1-c1cccc(Br)c1 | 5%
O=S(=O)(NC1CCCCC1)c1ccc(Cl)c(C(F)(F)F)c1 | 3%

A section from further up, for reference:
molecule | Mtb H37Rv
O=C1CC(Cc2ccc(Cl)cc2)C(=O)N1c1ccc(Cl)cn1 (stereo unspecified) | i
O=C(COc1ccccc1)Nc1ccc(CN2CCCCC2)cc1 | i
O=C(Nc1cccc2c1CCCC2)c1ccc(Cl)cc1[N+](=O)[O-] | i
C=CCn1c(SCCC(=O)O)nnc1-c1cccs1 | i
CC(C)(C)Sc1nnc(SC(C)(C)C)c2ccccc12 | i
Cc1ccc(CN2C(=O)c3oc4ccc(Cl)cc4c(=O)c3C2c2ccc(Br)cc2)cc1 (stereo unspecified) | i
CCOc1ccc(CNc2ccc(N3CCCC3)cc2)cc1 | i
C=CCn1c(SCC(=O)Nc2nc(-c3ccc(C)cc3)cs2)nnc1-c1ccc(OC)cc1 | 3%
COc1cc(C(=O)NC(=S)Nc2c(Cl)cc(Cl)cc2Cl)cc(OC)c1OC | 5%
Cc1ccccc1OCC(=O)O/N=C(\N)c1ccccc1Cl | 3%
N#Cc1ccccc1NC(=O)c1ccccc1OCC(=O)Nc1ccc2c(c1)oc1ccccc12 | 13%
COc1ccc(-c2cc(=O)c3cc(OC(=O)C(C)(C)C)ccc3o2)cc1 | i
COCCNS(=O)(=O)c1cc(OC)c(Cl)cc1OC | i
Cc1cc(=O)n2[nH]c(-c3ccc(Cl)cc3)nc2n1 | i
Cc1ccc(CNC(=O)C(=O)N2CCCCC2)cc1 | 2%
COc1ccc(N(CC(=O)O)S(=O)(=O)c2ccc(C)cc2)cc1 | i
NC(CC(=O)Nc1ccc(Cl)cc1)C(=O)O (stereo unspecified) | i
O=[N+]([O-])c1ccc(NCCCNS(=O)(=O)c2ccc3ccccc3c2)c(C(F)(F)F)c1 | i

Continuation:
molecule | Mtb H37Rv
CCc1cc2c(=O)c(Oc3c(F)cccc3Cl)c(C)oc2cc1O | 8%
COC(=O)c1cc(-c2ccccc2)sc1NC(=O)c1cc(C)on1 | i
Cc1ccc(-c2cc(=O)c3ccccc3o2)cc1 | i
CS(=O)(=O)c1ccc2nc(NC(=O)c3ccc(S(=O)(=O)NCC4CCCO4)cc3)sc2c1 (stereo unspecified) | i
O=C(CSc1nnc(-c2ccccc2)n1Cc1ccccc1)Nc1ccc(F)cc1 | 2%
CCOc1cc(OCC)cc(C(=O)O)c1 | 7%
CCN(CC)c1ccc(C(=O)Nc2cccc(Cl)c2)cc1[N+](=O)[O-] | 3%
O=C(Nc1ccc2oc(-c3cccc4ccccc34)nc2c1)c1cncc(Br)c1 | 2.7µg/mL*
O=C(c1cccnc1)N1CCN(c2c(Cl)cccc2[N+](=O)[O-])CC1 | i
COc1cc(S(=O)(=O)Nc2ccccc2)ccc1NC(=O)CCc1ccccc1 | 1%
O=C(c1ccc(F)cc1)N1CCCCCC1 | i
CSc1ncc(Cl)c(C(=O)N2CCC(Cc3ccccc3)CC2)n1 | i
COCCCNC(=S)NNC(=O)CC(c1ccccc1)c1ccccc1 | i
CSc1ccccc1C(=O)Nc1c(C)cccc1C | ?
CC1CCc2cc(F)ccc2N1C(=O)c1cccs1 (stereo unspecified) | 3%
O=C(CCN1CCc2ccccc2C1)Nc1ccc(F)cc1 | i
CCC(C)(C)c1ccc(OCCN2C(=O)NC(C)(C)C2=O)cc1 | 0%
Cc1ccc(OCCCC(=O)O)c(C)c1 | i
Cc1ccc(NC(=S)N2CCC(C(N)=O)(N3CCCCC3)CC2)c(C)c1 | i
Cc1ccc(O)c(/C=N/NC(=O)C2COc3ccccc3O2)c1 (stereo unspecified) | i
O=S(=O)(Nc1nc2ccccc2n2nnnc12)c1ccc(F)cc1 | 19%
COc1ccc(/C=C/c2nc(-c3ccccc3O)n[nH]2)cc1OC | 2%
C=CCn1c(NC(C)=O)nc2ccccc21 | 4%
O=C(O)c1ccc(NC(=S)Nc2ccccc2C(F)(F)F)cc1 | i
CCC(=O)Nc1ccc(C(=O)Nc2cccc(C(C)=O)c2)cc1 | i
NC(=O)CSc1nnc2scc(-c3ccc(Cl)cc3)n12 | 2%
Cc1ccccc1N1C(=O)CC(SC2=NCCS2)C1=O (stereo unspecified) | 5%
O=S(=O)(Nc1cc(C(F)(F)F)ccc1N1CCCCC1)c1ccccc1 | 1%
CCc1ccccc1NC(=O)c1cc(OC)c(OC)cc1OC | 4%
COc1ccccc1-c1c(C)nn2c(C(F)(F)F)cc(-c3ccccc3)nc12 | i

Other entries follow:
canonical_smiles	Mtb H37Rv
CC(Oc1ccc2c(c1)OCO2)C(=O)NNC(=O)Nc1cccc(C(F)(F)F)c1 (stereo unspecified)	i
O=C(NCc1cccnc1)c1ccc(COc2ccccc2Cl)cc1	11%
COC(=O)c1c(NC(=O)C2CC2c2ccccc2)sc2c1CCC2 (stereo unspecified)	2%
COc1ccc(/C=C(\C#N)S(=O)(=O)c2ccccc2)cc1CSCc1ccco1	i
O=C(CN1C(=O)c2ccccc2C1=O)Oc1ccc(C(=O)OCc2ccccc2)cc1	i
O=C(CCC1COc2ccccc2O1)Nc1ccc(Br)cc1 (stereo unspecified)	i
Cc1ccc(OCCNC(=O)C2CC(=O)N(c3ccc(C)cc3)C2)cc1 (stereo unspecified)	1%
Cc1ccccc1-c1cc(C(=O)Nc2ccccc2C(N)=O)c2ccccc2n1	7%
Cn1c(CCNC(=O)c2ccco2)nc2cc(NC(=O)C3CCCCC3)ccc21	i
CC(=O)Nc1ccc(Br)c(C)c1C	i
O=C(CSc1ccc(Cl)cc1)Nc1ccc(S(=O)(=O)N2CCCCCC2)cc1	i
CCC(=O)Nc1nc(-c2ccccc2)nc(SC)c1C(C)=O	1%
CCCOc1ccc(Br)cc1C1C2=C(CCCC2=O)NC2=C1C(=O)CCC2	5%
Cc1ccc(C(=O)NC(=S)Nc2ccc(Br)cn2)cc1	i
O=C(O)c1cc(-c2cccc(Cl)c2)nc2ccccc12	i
O=C1NC(=O)C(CCc2ccncc2)(CCc2ccccn2)C(=O)N1c1ccc(Br)cc1 (stereo unspecified)	i
COc1ccc(NC(=S)NC(=O)c2ccc(-c3ccccc3F)o2)c(OC)c1	i
Oc1ccccc1C1=Nc2ccccc2N=C(c2ccco2)C1	0%
Cc1ccc(NC(=O)CC2Nc3cc(C)c(C)cc3NC2=O)c(Br)c1 (stereo unspecified)	i
CCCOc1ccc(CCC(=O)NNC(=O)CCC(=O)O)cc1	i
Cc1c(NC(=S)NC(=O)c2cccc3ccccc23)cccc1-c1nc2ccccc2s1	i
CN1CCN(c2cc(-c3ccccc3)nc3c(C(F)(F)F)cccc23)CC1	1.9µg/mL*
Cc1ccc(OCC(=O)Nc2cc(C(F)(F)F)ccc2N2CCOCC2)c(C)c1	i
O=C(NC(=S)Nc1ccc(N2CCN(C(=O)c3ccccc3)CC2)cc1)c1cccc2ccccc12	i
COc1cc(OC)cc(C(=O)N2CCN(C(=O)c3ccco3)CC2)c1	i
Cc1ccccc1OC(C)C(=O)O/N=C(\N)c1ccccn1 (stereo unspecified)	i
CCOC(=O)C1=C(C)NC2=C(C(=O)C(C(=O)OC)C(C)C2)C1c1ccc(C)o1 (stereo unspecified)	i
COc1ccc(COC(=O)C2=C(C)NC(=O)NC2c2ccc(OC)c(Cl)c2)cc1 (stereo unspecified)	i
O=C(COc1ccc2ccccc2c1Br)Nn1cnnc1	1%
O=C(CSc1nnnn1-c1ccccc1F)NCc1ccccc1	i
C=Cc1cccc(NC(=O)c2ccc(NC(=O)c3ccco3)cc2)c1	i
FC(F)(F)c1ccc(Sc2ncccn2)nc1	0%
COc1ccc(S(=O)(=O)N2CCC(Cc3ccccc3)CC2)cc1C	8%
Cc1ccc(S(=O)(=O)N(CC(=O)N2CCCCC2)Cc2ccc(Br)cc2)cc1	i
CCC(C)NCCOCCOc1ccc(C)cc1 (stereo unspecified)	i
COc1cccc(OC)c1C(=O)Nc1ccc(C(=O)NC(C)(C)C)cc1	i
c1ccc(NCc2nc(-c3ccccc3)no2)cc1	10%
Cc1c(Cl)cccc1N=CC1=C(O)c2ccccc2C1=O	i
COc1ccc(S(=O)(=O)N(CC(=O)NC2CCCCCC2)c2ccc(C)cc2)cc1	i
COc1ccc(NC(=S)NC(=O)c2cc3ccccc3cc2OC)c(OC)c1	i
O=C(CCC1CCCC1)Nc1ccc(Cl)cc1Cl	i
CC(=O)c1ccc(-n2c(CCC(=O)O)ccc2-c2ccc(F)cc2)cc1	i

Compound activity from PubChem.
